GCN5L2 inh = blocks human GCN5L2 histone acetyltransferase. GCN5L2 HAT assay, ThioGlo1 CoA-SH fluorescence. Potency, µM (top dose mostly 58.9 µM), for inactives: at the highest dose activity change, negative = inhibition, actives largely listed as inhibitors. AID 504327. 390,000 tested, 0.21% active. Q92830
Target sequence (Q92830 whole entry, looked up): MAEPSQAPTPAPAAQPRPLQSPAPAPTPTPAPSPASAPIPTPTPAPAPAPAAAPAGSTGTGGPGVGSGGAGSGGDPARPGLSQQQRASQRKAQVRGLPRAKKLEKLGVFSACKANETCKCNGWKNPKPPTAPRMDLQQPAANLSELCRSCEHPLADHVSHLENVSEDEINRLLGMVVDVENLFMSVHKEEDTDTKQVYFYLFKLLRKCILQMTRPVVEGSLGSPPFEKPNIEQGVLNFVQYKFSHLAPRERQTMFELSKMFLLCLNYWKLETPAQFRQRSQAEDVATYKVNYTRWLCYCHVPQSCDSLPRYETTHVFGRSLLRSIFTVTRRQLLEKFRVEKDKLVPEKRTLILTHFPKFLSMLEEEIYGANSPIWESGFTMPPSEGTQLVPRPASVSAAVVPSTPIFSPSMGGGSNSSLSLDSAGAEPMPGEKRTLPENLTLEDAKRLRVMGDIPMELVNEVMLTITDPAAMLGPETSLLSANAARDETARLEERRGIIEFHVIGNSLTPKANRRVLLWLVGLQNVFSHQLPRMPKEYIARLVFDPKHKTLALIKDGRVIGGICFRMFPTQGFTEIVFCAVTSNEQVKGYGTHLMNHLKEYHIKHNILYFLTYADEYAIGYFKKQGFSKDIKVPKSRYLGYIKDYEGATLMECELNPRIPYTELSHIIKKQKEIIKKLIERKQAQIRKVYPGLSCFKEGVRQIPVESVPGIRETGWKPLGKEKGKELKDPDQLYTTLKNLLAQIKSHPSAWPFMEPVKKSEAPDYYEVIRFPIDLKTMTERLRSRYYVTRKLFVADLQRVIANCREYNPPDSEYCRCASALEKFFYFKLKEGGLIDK
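Free CoA generated was detected with ThioGlo1 (50uM) fluorescence at Ex340nm/Em540nm, read immediately and after 20 min at room temperature. Enzyme, 20 nM in HEPES pH 7.5 buffer, saw compounds 15 min before adding 75uM H3(1-25) peptide and 70uM acetyl-CoA.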
N370S GC = inhibits or activates N370S mutant glucocerebrosidase; 330,000 tested, 0.092% active; N370S GC spleen homogenate, 4MU-glucoside fluorescence; P04062; Potency, µM (highest dose often 59.4 µM), for inactives: top-dose activity change, negative = inhibition, hits mostly inhibitors;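 note: 0% = full enzyme activity and -100% = no enzyme basal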
* marks the source's active call; other numbers are inactive results; ? = inconclusive; nt = not tested or not shown; & = joins results of further samples; [ ] = another dose, or the depositor's remark. Calls come from the whole dose curve; as a rule, active = well fitted curve in the direction sought with a large enough effect; inconclusive = small, poorly fitted or top-dose-only effect, or another doubt; inactive = no such curve, though single readings can be large; an effect the other way counts as inactive or inconclusive. Unless noted, % is set by controls: 0 for no effect and ±100 for the full control effect; potency is the fitted concentration of half-maximal effect. The list is partial; most or all hits stand in other tables.

Sequence of screens – GCN5L2 inh	N370S GC
COc1ccc(S(=O)(=O)N2CCC(C(N)=O)(N3CCCCC3)CC2)cc1
  -4.5%	-8.2%
O=C(Nc1c(-c2ccccc2)nc2ccccn12)c1ccccc1F
  0.6%&-4.4%	-10.4%
CCc1ccccc1N(C(=O)c1snc(C(N)=O)c1N)C(C(=O)NCC1CCCO1)c1ccc(N(C)C)cc1 (stereo not drawn)
  -9.5%	-10.0%
CC(C)NC(=S)N/N=C/c1ccc(N2CCOCC2)cc1
  -10.4%	-17.1%
Cc1cccc(-c2noc(CNS(=O)(=O)c3ccccc3)n2)c1
  0.4%	-20.5%
C/C(=N/NC(=O)CCC(=O)Nc1cccc(Cl)c1)c1ccc(C)cc1
  2.3%	12.9%
CN(C)S(=O)(=O)c1ccc(NC(=O)c2cc3ccccc3o2)cc1
  -0.6%	5.6%[2.35 µM]
COc1ccccc1/C=C/C(=O)NCC(=O)N/N=C/c1cccnc1
  -5.0%	14.0%
Clc1ccc2nncn2n1
  -2.0%	15.4%
OCC[C@@H]1C[C@H](O)[C@@H](O)[C@@]2(Cc3ccccc3CCO2)O1
  4.1%	-1.1%
Cc1c(NC(=O)COC(=O)c2cc(-c3cccc4ccccc34)nc3ccccc23)c(=O)n(-c2ccccc2)n1C
  -9.0%	-14.4%
CCOC(=O)c1cnc2c(-c3ccccc3)c(-c3ccccc3)nn2c1C
  -21.2%	2.0%
O=C(c1coc2ccc(O)c(CN3CCOCC3)c12)C1CC1
  -2.3%	-0.7%
CCc1cc2cc(C)ccc2nc1SCC(=O)NNC(=O)c1ccco1
  3.4%	-2.9%
NS(=O)(=O)c1ccc(NC(=S)N2CCc3ccccc32)cc1
  -14.6%	-0.9%
CC1CN(C(=O)COC(=O)c2ccc(Cl)c(N)c2)CC(C)O1 (stereo not drawn)
  -1.5%	-1.3%
O=C(COC(=O)c1ccncc1)NCc1ccccc1
  0.9%	5.4%
COc1ccc(/C=C(\NC(=O)c2ccc(OC)cc2)C(=O)Nc2cccc(C(=O)O)c2)cc1
  3.8%	-17.7%
COc1ccc(NC(=O)c2cccc3ccccc23)cc1
  -6.9%	-5.1%
CC1CN(CCCCOc2cccc(Oc3ccccc3)c2)CC(C)O1 (stereo not drawn)
  0.0%	-2.4%
Cc1cc2cc(C=O)c(Cl)nc2cc1C
  -1.8%	13.1%
CCn1c(SCC(=O)Nc2ccc(S(N)(=O)=O)cc2)nnc1-c1cccc(OC)c1
  -1.4%	6.0%
N#Cc1nc(-c2cccs2)oc1NCc1ccccc1Cl
  -0.7%	16.4%
O=C(/C=C/Nc1cccc(C(F)(F)F)c1)c1ccc(Oc2ncccn2)cc1
  -14.7%	-6.2%
COc1ccccc1NC(=O)C1CCCN1C(=O)NCc1ccccc1 (stereo not drawn)
  -1.2%	-11.2%[2.35 µM]
COc1ccc(-c2cnnc(N/N=C/c3ccc(C)o3)n2)cc1
  -4.2%	2.7%
O=C(O)c1cc(S(=O)(=O)N2CCCCC2)ccc1F
  -1.4%	7.1%
COc1ccc(NCc2cc3cc4c(cc3n(CC(=O)Nc3cc(C)cc(C)c3)c2=O)OCO4)cc1
  -1.1%	nt
CCSc1ccccc1C(=O)NCCc1ccccc1
  -1.1%	-1.2%
c1ccc(C2CC(c3ccccc3)n3ncnc3N2)cc1 (stereo not drawn)
  -17.2%	8.5%

Sorted by molecular weight (rising): part of the list above
Sequence of screens – GCN5L2 inh	N370S GC
CCSc1ccccc1C(=O)NCCc1ccccc1
  -1.1%	-1.2%
O=C(Nc1c(-c2ccccc2)nc2ccccn12)c1ccccc1F
  0.6%&-4.4%	-10.4%
COc1ccc(/C=C(\NC(=O)c2ccc(OC)cc2)C(=O)Nc2cccc(C(=O)O)c2)cc1
  3.8%	-17.7%
CCc1ccccc1N(C(=O)c1snc(C(N)=O)c1N)C(C(=O)NCC1CCCO1)c1ccc(N(C)C)cc1 (stereo not drawn)
  -9.5%	-10.0%

(further entries)
Sequence of screens – GCN5L2 inh	N370S GC
O=S(=O)(/N=C(/Nc1ccc(F)cc1F)c1ccc(Cl)cc1)c1ccccc1
  -4.8%	5.4%
CCCCCCC(=O)Nc1c(O)c2ccccc2[nH]c1=O
  -4.9%	18.5%
COc1ccc(N2CCN(C(=O)c3ccc(F)cc3)CC2)c([N+](=O)[O-])c1
  -1.9%	-5.3%
Cn1c(C(=O)N2CCN(c3ccc(Cl)cc3)CC2)cc2c(=O)[nH]c3ccccc3c21
  -9.5%	-4.0%
CC(=O)c1ccc(NC2OC(C)C(O)C(O)C2O)cc1 (stereo not drawn)
  -11.5%	0.3%
COC(=O)C(NNc1ccccc1C)(NC(=O)c1ccc(F)cc1)C(F)(F)F (stereo not drawn)
  -7.7%	1.9%
CCCCn1nc(NC(=O)COC)c2cc3ccc(C)cc3nc21
  53.5%[activator]	4.3%
CC(=O)Nc1c(C(=O)Nc2ccc3c(c2)OCO3)oc2ccccc12
  -0.7%	2.5%
Cc1ccc(Oc2ccc3c(c2)C(=O)N(c2ccc(S(=O)(=O)Nc4nccs4)cc2)C3=O)cc1
  -21.8%	nt
CSc1ncc(CN2CCC(C(=O)Nc3cccc(-c4cscn4)c3)CC2)cn1
  ?	0.4%
CCOC(=O)[C@H]1[C@H]2COc3ccccc3[C@@H]2N2C(=O)CN(Cc3ccc(C)cc3)C(=O)[C@@]12C
  -7.5%	nt
Cc1ccc(NC(=O)c2cccc(NC(=O)CCC(=O)O)c2)cc1C
  -13.1%	-10.5%
COc1ccc(-c2cc(C(=O)N3CCN(c4ccccc4OC)CC3)no2)cc1OC
  -9.8%	-7.0%
NS(=O)(=O)c1ccc(NC(=O)CSc2ncnc3ccccc23)cc1
  -2.3%	-10.8%
O=C(O)/C=C\c1cccc(-n2nnnc2SCc2ccccc2F)c1
  -15.6%	0.0%
Nc1nc(-c2ccccc2)c(N=Nc2cccnc2)s1
  -6.5%	?
C#CCSc1nnnn1-c1ccc(Br)c(C)c1
  -8.5%	5.6%
O=C(O)CSc1nnc2c(n1)[nH]c1ccccc12
  -9.4%	-12.0%
O=C1CC(c2ccc(Br)cc2)c2c(ccc3ccccc23)N1 (stereo not drawn)
  2.0%	nt
COc1cccc(NC(=O)CCNC(=O)N2CC(=O)Nc3ccccc32)c1
  -18.9%	1.7%
Cc1ccc(N(CC2CO2)S(=O)(=O)c2ccccc2[N+](=O)[O-])cc1 (stereo not drawn)
  0.4%	-2.7%
O=c1[nH]cnc2onc(-c3ccc(F)cc3)c12
  ?	1.2%
COc1cc(OC)c(OC)cc1/C=C1\SC(N2CCCCC2)=NC1=O
  -3.2%	-9.7%
Cc1cc(C)cc(NC(=O)CS(=O)(=O)c2cccc3nsnc23)c1
  -7.0%	-1.6%
Cc1cccc(OC(=O)c2cccnc2)c1C
  0.2%	-1.6%
CC(C)(C)C(=O)NC(=C(Cl)Cl)P(=O)(O)O
  37.1%[activator]	3.1%
CCC(Cc1ccccc1)NC(=O)c1cc(S(=O)(=O)N2CCCCC2)c[nH]1 (stereo not drawn)
  2.6%	-4.7%
CCC(=O)Nc1ccc(NC(=O)c2cc3ccccc3o2)c(OC)c1
  -6.0%	-7.9%
Cc1cc(C)cc(NC(=O)N2CCCCCCC2)c1
  -3.1%	1.3%
Cc1ccc(OCCCCNC2CCCCC2)c(C)c1
  17.4%	-3.7%
O=C(Cn1c(=O)n(Cc2ccccc2)c(=O)c2cc(Cl)ccc21)NCC1CCCO1 (stereo not drawn)
  -17.4%	-1.2%
COc1ccc(C(=O)Nc2nnc(SCc3cc(=O)c4cc(C)ccc4[nH]3)s2)cc1OC
  -5.2%	nt
COc1ccc(CCNC(=O)C(C)Sc2ccccc2)cc1OC (stereo not drawn)
  -0.4%	-11.6%
O=S(=O)(NCCc1ccncc1)c1ccc(S(=O)(=O)N2CCCCCC2)cc1
  -8.1%	-11.4%
CC1CCCCN1C(=O)c1cc2ccccc2cc1O (stereo not drawn)
  -6.5%	-5.2%
CSc1n[nH]c(NC(C)=O)n1
  -6.7%	-18.9%
COc1ccc(Cl)cc1C(=O)O/N=C(\N)c1ccccn1
  14.0%	-1.4%
O=C(Cn1c(=O)[nH]c2ccsc2c1=O)NC1CCCCC1
  -2.5%	7.4%
COc1ccc(-c2cc3ccc(O)c(CN4CCOCC4)c3oc2=O)cc1
  ?	nt
CCC1C(C#N)=C(SCC(N)=O)NC2=C1C(=O)CC(C)(C)C2 (stereo not drawn)
  1.2%	-1.3%
CCC(=O)N1CCc2cc(Br)cc(S(=O)(=O)N3CCC(C(=O)NCCCOC(C)C)CC3)c21
  -7.9%&-5.8%	-16.8%
Cc1ccc(NC(=O)Cn2c(=O)n(CCCC(=O)NCc3ccco3)c(=O)c3ccccc32)cc1
  -8.2%	0.8%
Cc1noc(C)c1COc1ccccc1C(=O)NC1CCC(C)CC1 (stereo not drawn)
  0.2%	17.0%
N#CCC(=O)Nc1ccccc1C(=O)O
  -1.1%	5.0%
CC(NC(=O)Nc1ccccc1)C(c1cccs1)N1CCN(C)CC1 (stereo not drawn)
  -4.6%	-6.5%
CN(Cc1ccccc1)S(=O)(=O)c1ccc(OCC(=O)NCc2cccnc2)cc1
  -5.1%	-13.5%
CCc1ccc2c(c1)CCCN2C(=O)c1ccccc1C(=O)O
  -1.6%	-0.5%
Cn1nc(C(=O)NCCc2ccc(S(N)(=O)=O)cc2)c2ccccc2c1=O
  0.5%	-18.4%
Clc1ccccc1SCc1nc2ccccc2[nH]1
  -5.4%	12.6%
CC1Cc2cc(C(=O)O)ccc2O1 (stereo not drawn)
  0.2%	-14.5%
N#CC1=C(N)C(C#N)(C#N)[C@H](c2cccnc2)[C@H]2CN(C(=O)OCc3ccccc3)CC=C12
  -2.7%	-5.1%
COc1ccc(Cl)cc1N(CC(=O)NCC(C)C)S(=O)(=O)c1ccc(C)c([N+](=O)[O-])c1
  1.2%	5.9%
Cc1cc(C(=O)N2CCN(S(=O)(=O)c3ccc(F)c(Cl)c3)CC2)c(C)o1
  -8.4%	nt
Cc1ccc(S(=O)(=O)NC2(C(F)(F)F)NC(=O)N(CCc3ccccc3)C2=O)cc1 (stereo not drawn)
  0.8%&-3.8%	1.8%
CCOC(=O)N1CCN(C(=O)c2cccc(NC(=O)c3ccco3)c2)CC1
  1.3%	3.2%
N#Cc1ccc(N2CCN(c3ccc(F)cc3)CC2)cc1
  -4.7%	1.3%
O=C(CN1CCN(Cc2ccc(F)cc2Cl)S1(=O)=O)Nc1ccc(F)cc1
  -6.0%	nt
O=c1c2ccccc2ncn1C1CCCCC1
  nt	4.5%
COc1cccc(C2=CC(c3cccs3)n3nnnc3N2)c1 (stereo not drawn)
  -2.8%	2.0%
COc1ccc(-c2cc(C)no2)cc1S(=O)(=O)NCCc1ccco1
  -7.0%	-19.4%

The list goes on, overlapping the part above by three compounds.
Sequence of screens – GCN5L2 inh	N370S GC
O=c1c2ccccc2ncn1C1CCCCC1
  nt	4.5%
COc1cccc(C2=CC(c3cccs3)n3nnnc3N2)c1 (stereo not drawn)
  -2.8%	2.0%
COc1ccc(-c2cc(C)no2)cc1S(=O)(=O)NCCc1ccco1
  -7.0%	-19.4%
Cc1ccc(NS(=O)(=O)c2ccc(Cl)s2)cc1S(=O)(=O)N(C)C
  -4.3%	6.2%
COc1ccccc1NC(=O)CSc1nc2ccccc2c(=O)n1CCC(=O)NC1CCCCC1
  3.4%	nt
Cc1cc(C)n(-c2ccc(C(=O)N3CCN(S(=O)(=O)c4ccc(Cl)cc4)CC3)cc2)n1
  -1.3%	nt
Cc1ccc(-n2c(SCC(=O)NC3CCS(=O)(=O)C3)nc3ccccc3c2=O)cc1C (stereo not drawn)
  -0.5%	-3.6%
CC(c1ccccc1)N1CC(C(=O)N2CCN(c3ccccc3)CC2)CC1=O (stereo not drawn)
  1.8%	-11.5%
COc1cc(OC)c(S(=O)(=O)N2CCN(C(=O)c3ccccc3F)CC2)cc1NC(C)=O
  -5.4%	-4.6%
Cc1ccc(NC(=O)COC(=O)CN2C(=O)NC3(CCCC3)C2=O)cc1Cl
  -4.8%	nt
Cc1ccc(-c2nnc(Nc3cccc(O)c3)c3ccccc23)cc1S(=O)(=O)NCC1CCCO1 (stereo not drawn)
  -1.8%	nt
CC(=O)/C(=C(/O)c1ccccc1)c1nc2ccccc2[nH]1
  -3.7%	-3.0%
Cc1cccc(C)c1OCC(=O)Nc1ncn[nH]1
  2.1%&-4.2%	4.0%
O=C(O)c1ccccc1C(=O)Nc1ccc(Nc2ccc([N+](=O)[O-])cc2[N+](=O)[O-])cc1
  -2.2%	-14.0%
CCN(CC)CCCn1c(C)cc2c(c1=O)C(c1ccc(OC)c(OC)c1OC)C(C#N)=C(N)O2 (stereo not drawn)
  -2.6%	10.4%
O=C(Nc1cccc(S(=O)(=O)N2CCOCC2)c1)C(c1ccccc1)N1CCCCC1 (stereo not drawn)
  -7.0%	-3.4%
COc1cccc(N(CC(=O)NCCSCc2ccc(Cl)cc2)S(C)(=O)=O)c1
  -16.9%	-24.9%
CSc1ccc(S(=O)(=O)NCc2ccc(Cl)cc2Cl)cc1
  0.0%	4.0%
O=C(N=C1SC2CS(=O)(=O)CC2N1c1ccc(F)cc1)C1CC1 (stereo not drawn)
  -7.1%	-3.8%

Compound activity (PubChem)
